High-throughput results: PubChem BioAssay, several laboratories
CBX7 inh = CBX7 chromodomain binding inhibitors, primary screen, biochemical, AlphaScreen | Chromobox protein homolog 7 (Homo sapiens), O95931 | AlphaScreen His6-CBX7 / biotin-H3K27me3 peptide binding; stronger effect = lower value | normalised signal (fraction of DMSO) (no concentration beside the values) | 66,000 compounds, 1.1% hits | AID 1224903, 2016; in the data active = normalised signal below about 0.5;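 note: 100 nL library stock added to about 20 µL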
Target sequence (O95931 whole entry, looked up): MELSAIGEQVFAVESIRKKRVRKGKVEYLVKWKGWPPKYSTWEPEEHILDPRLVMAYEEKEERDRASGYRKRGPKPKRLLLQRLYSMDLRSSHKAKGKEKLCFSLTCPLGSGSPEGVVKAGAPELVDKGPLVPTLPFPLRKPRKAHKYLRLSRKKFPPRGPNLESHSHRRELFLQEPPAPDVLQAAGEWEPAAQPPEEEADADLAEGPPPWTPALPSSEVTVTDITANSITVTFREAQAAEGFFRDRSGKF
CBX7 inh z-score = also measured in CBX7 inh; calls as there; z-score; measured here: z-score of CBX7 signal; some inactives read as strong as hits; reference of the scale not given here;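 same signal on another scale; lower means less binding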
Active calls of the source: *.

Below each SMILES: CBX7 inh	CBX7 inh z-score
Cc1ccc(CNc2oc(COc3ccccc3C)nc2C#N)cc1
    0.724	-3.5
COc1ccc(N2CCN(C(=O)CSCc3cnn(-c4ccccc4)c3-n3cccc3)CC2)cc1
    0.732	-12.1
COc1ccc(-c2noc(-c3cccc(OC)c3OC)n2)cc1OC
    1.15	2.29
O=C1CN(C(=O)COc2ccccc2)C(c2ccccc2)c2cc(Cl)ccc2N1 (configuration not stated)
    0.762	-2.27
COc1ccccc1CNC(=O)CSCc1nc(-c2ccccc2C)oc1C
    1.01	0.0451
CCN(CC)S(=O)(=O)c1ccc2oc(C(=O)NCc3ccccc3)c(C)c2c1
    0.965	-0.164
Cc1cc(NS(=O)(=O)c2ccc(Nc3nc(-c4cccnc4)cs3)cc2)no1
    1.13	2.57
O=C(Nc1ccc(F)cc1)c1cc(-c2ccccc2)nc2ccccc12
    1.01	0.0225
O=C(CN1CCN(Cc2ccccc2Cl)C1=O)NCc1ccccn1
    0.875	-1.79
COc1cc(OC)c(NC(=O)CCc2nc(-c3ccccc3F)no2)cc1Cl
    0.982	-0.54
CCCCCCNC(=O)c1c[nH]c2ccc(S(=O)(=O)N3CCC(C)CC3)cc2c1=O
    1.03	0.903
C=CCNC(=O)c1cc2c(n(-c3ccc(Cl)cc3)c1=O)CCCC2=O
    1	0.0239
COc1cccc(-c2nn(C)c3sc(C(=O)N4CCN(c5ccccc5)CC4)cc23)c1
    0.662	-4.36
Cc1cc(I)ccc1NC(=O)c1cccc(CSc2nncn2C)c1
    0.913	-0.64
O=C(Cn1nc(Cc2cccnc2)c2ccccc2c1=O)NCc1cccnc1
    1.1	1.55
COc1cc(C)c(S(=O)(=O)NCCc2c(C)[nH]c3ccc(C)cc23)cc1C
    0.375*	-0.621*
O=C(Cn1c(SCc2ccc(F)cc2)nc2ccncc21)Nc1ccc(Cl)cc1F
    0.948	-2.49
CCCCNc1nc(C)nc2sc(C)c(C)c12
    1.1	2.95
Cc1cc(C(F)(F)F)nc(NCc2cccnc2)n1
    1.09	0.737
COc1ccc(-c2c(C)nn3c(N4CCC(C(=O)Nc5cc(C)on5)CC4)cc(C)nc23)cc1OC
    0.951	-2.3
O=C(O)c1ccc2c(c1)N(Cc1ccccc1)C(=O)c1ccccc1S2
    1.02	0.52
COc1ccc(Cn2c(CCC(=O)NCc3ccccn3)nc3cccnc32)cc1
    1.07	2.81
Cc1ccccc1Cc1c(C)nc2c(C(=O)N3CCOCC3)cnn2c1C
    0.997	-0.0924
CCc1ccc(C(=O)CC2(O)C(=O)N(CCc3ccccc3)c3ccc(Br)cc32)cc1 (configuration not stated)
    0.626	-10.8
CCCCN(CCCC)S(=O)(=O)c1ccc2oc(C(=O)N3CCCCCC3)c(C)c2c1
    0.857	-1.54
O=C(NCc1ccncc1)C(=O)NC1CCCC1
    0.985	-0.404
CC(C)CCNC(=O)Cn1c2c(c(-c3ccccc3Cl)cc1=O)CCC2
    1.09	0.947
O=C(NC1CCCC1)c1ccc(NC2=NC3CS(=O)(=O)CC3S2)cc1 (configuration not stated)
    1.44	3.32
CCOc1ccccc1C(=O)Nc1c(-c2ccc(F)cc2)nc2ccccn12
    0.902	-0.944
O=C1CC(c2ccc(S(=O)(=O)NC(c3ccccc3)c3ccccc3)cc2)CN1 (configuration not stated)
    1.05	0.487
COc1cccc(N2CCN(C(=O)C3(S(=O)(=O)c4ccc(C)cc4)CC3)CC2)c1
    0.995	-0.107
CC(O)c1ccc(NC(=O)c2cnn3c2NC(c2ccc(F)cc2)CC3C(F)(F)F)cc1 (configuration not stated)
    1.13	1.52
OC(C#CCN1CCCC1)(c1ccccc1)C1CCCC1 (configuration not stated)
    1.33	2.6
CCCCN(CCCNC(=O)CC(C(=O)N1CCc2ccccc21)n1ccnc1)c1ccccc1 (configuration not stated)
    0.629	-14.5
COc1cc(OC)cc(C(=O)Nc2cc(-c3nc4ncccc4o3)ccc2Cl)c1
    1.19	1.35
CCNC(=O)CC1C(=O)N(c2ccc(F)cc2)C(=O)N1Cc1ccc(C)cc1 (configuration not stated)
    1.03	0.902
O=C(Nc1ccccc1)Nc1nnc(-c2ccccc2F)s1
    1.08	0.294
COc1ccc(-c2noc(COc3ccc(C(C)C)cc3Br)n2)cc1
    1.02	0.223
Cc1ccc(C)c(N(C)C(=O)c2ccc3c(=O)n4c(nc3c2)CCCCC4)c1
    0.937	-1.04
Cc1sc2nc(SCc3ccccc3)[nH]c(=O)c2c1C
    0.992	-0.326

Exported with each value named: 4 of the compounds above
OC(C#CCN1CCCC1)(c1ccccc1)C1CCCC1 (configuration not stated)
  CBX7 inh = 1.33 | CBX7 inh z-score = 2.6
CCCCN(CCCNC(=O)CC(C(=O)N1CCc2ccccc21)n1ccnc1)c1ccccc1 (configuration not stated)
  CBX7 inh = 0.629 | CBX7 inh z-score = -14.5
COc1cc(OC)cc(C(=O)Nc2cc(-c3nc4ncccc4o3)ccc2Cl)c1
  CBX7 inh = 1.19 | CBX7 inh z-score = 1.35
CCNC(=O)CC1C(=O)N(c2ccc(F)cc2)C(=O)N1Cc1ccc(C)cc1 (configuration not stated)
  CBX7 inh = 1.03 | CBX7 inh z-score = 0.902

New compounds follow.
Below each SMILES: CBX7 inh	CBX7 inh z-score
COc1ccccc1-c1c(C)[nH]n2c(=O)cc(C)nc12
    0.983	-0.183
COc1ccc(NC(=O)CNC(=O)Cn2cnc3ccccc3c2=O)cc1OC
    1.02	0.687
Cc1ccc(CN2C(=O)CSc3ccc(C(=O)NCCCOC(C)C)cc32)cc1
    1.1	4.06
Cc1ccc(CCNS(=O)(=O)c2ccc3c(c2)CCN3C(=O)CCC(=O)O)cc1
    0.939	-0.995
COc1ccc2cc(CCNC(=O)c3ccc4c(c3)OCO4)c(=O)[nH]c2c1
    0.996	-0.15
CC(NC(=O)C1CCCN(C(=O)c2cc3sccc3n2C)C1)C12CC3CC(CC(C3)C1)C2 (configuration not stated)
    0.685	-9.07
COCCn1c(=O)[nH]c2cc(C(=O)N3CCN(c4ccc(Cl)cc4)CC3)ccc2c1=O
    0.993	-0.165
Cc1cccc(C(=O)N2CCc3c([nH]c4ccccc34)C2c2ccccc2)c1 (configuration not stated)
    0.784	-5.76
COc1ccccc1CNC(=O)C1(NS(=O)(=O)c2cccc3cccnc23)CCCCC1
    0.96	-1.83
COCCNC(=O)CN1C(=O)c2ccccc2Sc2ccc(C(=O)N3CCCC3)cc21
    0.988	-0.338
COc1ccc(CNS(=O)(=O)c2ccc3c(c2)CCN3C(=O)CCCC(=O)O)cc1
    1.08	0.602
Cc1cccc(NC(=O)Cn2c(C)cc3ccccc3c2=O)n1
    0.934	-1.71
COc1ccc(CNC(=O)c2cc3c(s2)CSC3)cc1
    1.15	1.65
CCCN(C(=O)c1cn(CC)c(=O)c2cc(OC)c(OC)cc12)c1ccccc1C
    1.07	0.599
CCCN(CCC)CCNC(=O)CCC(=O)Nc1ccc2nc(N3CCOCC3)cc(C)c2c1
    1.11	0.146
CC(NC(=O)C1CCN(C(=O)c2cc3sccc3n2C)CC1)c1ccc2c(c1)OCCO2 (configuration not stated)
    1.18	3.29
COc1cccc(C(=O)Nc2nnc(COc3ccc(Cl)cc3)s2)c1
    1.1	1.08
C=CCn1c(=N)n(CC(O)COc2ccccc2OC)c2ccccc21 (configuration not stated)
    0.882	-0.511
COc1ccccc1Nc1cc(C(F)(F)F)nc2c(OC)ccc(OC)c12
    0.205*	-7.6*
COCCCNc1cc(C)nc2c(-c3ccccc3OC)c(C)nn12
    1.28	1.63

(listing goes on)
canonical_smiles	CBX7 inh	CBX7 inh z-score
Cc1cccc(Nc2nc3nonc3nc2N2CCC(C)CC2)c1C	0.889	-1.32
COc1ccc(OC)c(NS(=O)(=O)c2cnc[nH]2)c1	0.89	-1.8
CCOC(=O)N1CCN(c2c(NCCOC)c(=O)c2=O)CC1	1.01	0.224
Cc1ccc(S(=O)(=O)N2CCN(c3ccc4nncn4n3)CC2)cc1	0.966	-0.612
CCC(C)c1ccc(NC(=O)c2cc3ccccc3o2)cc1 (configuration not stated)	1.12	0.993
O=S(=O)(Nc1ccc(-c2cn3ccccc3n2)cc1)c1ccccc1	0.782	-2.34
Cc1nc2cc(-c3ccccc3)nn2c(C)c1CCC(=O)Nc1ccc2nc(-c3cccnc3)[nH]c2c1	0.954	-1.38
CC1CCCC(C)N1C(=O)CN1C(=O)COc2ccc(S(=O)(=O)N3CCOCC3)cc21 (configuration not stated)	1.04	1.22
Cc1nc2c(C(=O)NCc3ccc(F)cc3)c[nH]n2c(=O)c1Cc1ccccc1F	1.08	1
CC1CCC(C(=O)NC(Cc2ccccc2)C(=O)NCCc2ccc(S(N)(=O)=O)cc2)CC1 (configuration not stated)	0.994	-0.26
CCc1cccc(NC(=O)C2CCN(S(=O)(=O)c3cccc4cccnc34)CC2)c1	1.03	0.358
CC(C)OCCCNC(=O)c1cccc(NC2=NC3CS(=O)(=O)CC3S2)c1 (configuration not stated)	1.12	1.29
Cc1ccc(C2C(=O)N(C3CCCCC3)CC(=O)N2Cc2ccccc2Cl)cc1 (configuration not stated)	0.915	-0.528
CC1=Nc2cc(C(=O)NC3CCC(C)CC3)ccc2Sc2c(C)ccc(C)c21 (configuration not stated)	1.07	1.01
O=C(CSc1nnc(Cc2cc(=O)[nH]c(=O)[nH]2)n1-c1ccc(F)cc1)NCCc1ccccc1	1.07	1.87

Record cards, from the list above.
Shown for Cc1nc2c(C(=O)NCc3ccc(F)cc3)c[nH]n2c(=O)c1Cc1ccccc1F : CBX7 inh: 1.08; CBX7 inh z-score: 1
Shown for Cc1ccc(C2C(=O)N(C3CCCCC3)CC(=O)N2Cc2ccccc2Cl)cc1 (configuration not stated) : CBX7 inh: 0.915; CBX7 inh z-score: -0.528

Following part
canonical_smiles	CBX7 inh	CBX7 inh z-score
Cc1sc2ncn(CC(=O)NCCCC(=O)NCCN3CCOCC3)c(=O)c2c1C	0.948	-1.07
COc1ccc2nc(N3CCCC(C(=O)NCCc4ccc(Cl)cc4)C3)sc2c1 (configuration not stated)	0.954	-0.767
CCCC(C)C(=O)Nc1ccc(S(=O)(=O)Nc2nccc(C)n2)cc1 (configuration not stated)	1.1	2.92
COc1ccc(N(C)C(=O)Cn2c(C)cc3ccccc3c2=O)c(OC)c1	1.11	0.971
O=C(C1=CCN(S(=O)(=O)c2ccc(Br)cc2)CC1)N1CCN(c2ccccc2)CC1	0.965	-1.39
CCCCN(C)CCNC(=O)c1cc(Nc2ccc(OC)cc2OC)nc2ccccc12	0.82	-2.39
COc1ccc(-c2noc(-c3cccc(OC)c3OC)n2)cc1	1.16	2.45
Cc1ccc(CN2CCN(CC(=O)NC3CCCC(C)C3C)C2=O)cc1 (configuration not stated)	0.972	-0.518
CCOC(=O)c1c(C)n(-c2ccccc2C)c2ccc(O)cc12	0.776	-2.2
Fc1ccc(-c2nnc3ccc(NCCc4ccccc4)nn23)cc1	1.17	3.85
Cc1ccc(CCNC(=O)CN2C(=O)CSc3ccc(S(=O)(=O)N4CCCC4)cc32)cc1	0.995	-0.19
O=C(NCc1cccnc1)c1nn2c(C(F)(F)F)cc(-c3ccccc3)nc2c1Br	1.01	0.047
CCOc1ccc(NC(=O)CSc2nnc(-c3ccncc3)n2-c2ccccc2)cc1	0.98	-0.561
Cc1cc2c(cc1C)-c1nnc(-c3ccc4ccccc4n3)n1C(C)(C)C2	0.937	-1.37
Cc1ccc2nc(Nc3nc4c(c(=O)[nH]3)CCC4)nc(C)c2c1	1.01	0.348
CCC1=Nc2cc(C(=O)NCC3CCCN3CC)ccc2Sc2ccccc21 (configuration not stated)	0.782	-2.52
COc1ccc(-n2nc(N)c(C(N)=O)n2)cc1	1.03	0.297
COc1cccc(CNC(=O)c2ccc3c(c2)NC(=O)CS3)c1	1.06	0.372
COc1ccc(-n2ccnc2SCC(=O)Nc2ccc(C)cc2C)cc1	0.917	-1.27
CC(C)CCNC(=O)C1CCC(=O)N1Cc1ccc(F)cc1 (configuration not stated)	1	0.0153
COc1ccc(-c2nc(C(=O)NCC3CCCO3)c(C)o2)cc1 (configuration not stated)	0.99	-0.324
c1ccc(-c2cn3c4ccccc4n(CCN4CCOCC4)c3n2)cc1	0.695	-3.23
CC(=O)NC(CCS(C)(=O)=O)C(=O)Nc1ccc(Br)cc1F (configuration not stated)	1.04	1.98
Cc1ccc(S(=O)(=O)C2(C(=O)N3CCN(Cc4ccc5c(c4)OCO5)CC3)CC2)cc1	0.955	-2.16
COc1cc(OC)cc(C(=O)Nc2ccc(S(=O)(=O)Nc3ncccn3)cc2)c1	1.03	0.596
Cc1sc2ncn(CC(=O)NCC(=O)NC3CCCCC3)c(=O)c2c1C	1.09	0.904
CCc1ccc(NS(=O)(=O)c2ccc3[nH]cc(C(=O)NCCc4ccccc4)c(=O)c3c2)cc1	1.02	0.281
CC(=O)Nc1ccc(Nc2nc(-c3ccncc3)cs2)cc1	1	-0.00371
Cc1c(C(=O)NCc2ccc3c(c2)OCO3)oc2ccc(S(=O)(=O)N3CCC(C)CC3)cc12	0.957	-1.09
COc1ccc(C(=O)Nc2cc(C)on2)cc1	1.01	0.371
COc1ccc(-c2noc(Cc3ccccc3)n2)cc1OC	0.999	-0.0118
CCC(=O)Cc1nnc2c(Nc3ccc(Cl)cc3)nc3nonc3n12	0.914	-1.36
O=c1[nH]nc(-c2ccc(Cl)cc2)c2ccccc12	1.05	0.802
O=C(CN1C(=O)CSc2ccc(S(=O)(=O)N3CCOCC3)cc21)NCCc1ccccc1	1.01	0.21
Cc1ccc(-n2ncc3c(N4CC(C)OC(C)C4)ncnc32)c(C)c1 (configuration not stated)	1.08	2.34
OC(CCN1CCOCC1)(c1ccccc1)c1ccc(Cl)cc1 (configuration not stated)	1.06	2.16
COc1ccc(C(=O)Nc2c3c(nn2-c2ccccc2C)CS(=O)(=O)C3)cc1OC	1.03	0.507

These rows are one share of the data. The share of hits here may be higher or lower than overall.
